Screening results: PubChem BioAssay, National Center for Advancing Translational Sciences (NCATS)
Vaccinia mCherry – vaccinia inhibition (mCherry reporter); Vaccinia virus mCherry reporter infection, fluorescence; about a quarter of the inactives have no number; Potency, µM (titrated, usually from 36.5 µM), without a hit: top-dose activity change, negative = inhibition, usual class: inhibitors; actives 0.63% (n = 310,000); active = well fitted inhibition curve with a large enough effect; inconclusive = small, poorly fitted or top-dose-only effect; inactive = no such curve, though single readings can be large or run the other way; tested in A549 cells; further: nearly all actives have a fitted effect of over 35% in size; inactives centre near -10
Vaccinia Venus – inhibitors of vaccinia virus (Venus reporter). Potency, µM (doses to about 36.5 µM), for the others: at the top dose activity change, negative = inhibition, most hits filed as inhibitors. actives 0.46% (n = 330,000). Vaccinia virus Venus reporter expression, fluorescence; active means well fitted inhibition curve with a large enough effect; inconclusive means small, poorly fitted or top-dose-only effect; inactive means no such curve, though single readings can be large or run the other way; tested in A549 cells; further: nearly all actives have a fitted effect of over 30% in size; inactives centre near -10
Numbers without * were called inactive; & = joins results of further samples. On the % scale 0 is the no-effect control and ±100 the full control effect; potency means the concentration at half of the fitted maximal effect.

For CC(NCC(O)COc1ccc(S(=O)(=O)N2CCOCC2)cc1)c1ccccc1 (configuration not stated) the results were Vaccinia mCherry -11% and Vaccinia Venus -4%.
For NC1(CO)COC(c2ccccc2)OC1 (configuration not stated) the results were Vaccinia mCherry inconclusive and Vaccinia Venus inconclusive.
CCN(C(=O)C1CCC(CNS(=O)(=O)c2cccc3nsnc23)CC1)c1cccc(C)c1 (configuration not stated) was read as Vaccinia mCherry -23% and Vaccinia Venus -9%.
Cn1ncc([N+](=O)[O-])c1C(=O)Nc1cccc2ccccc12 was read as Vaccinia mCherry -18% and Vaccinia Venus 0%.
`CCN(CC)CCN(Cc1cc2ccc(C)cc2[nH]c1=O)C(=O)NC1CCCCC1` gave Vaccinia mCherry -3% and Vaccinia Venus -4%.
Cc1[nH]nc2c1C(c1ccccc1)C1=C(CC(C)(C)CC1=O)N2 (configuration not stated) was read as Vaccinia mCherry inconclusive and Vaccinia Venus -18%.
O=C(Cn1c(=O)n(-c2ccc(Cl)cc2)c(=O)c2c3c(sc21)CCC3)c1ccc(F)cc1 was read as Vaccinia mCherry inconclusive and Vaccinia Venus inconclusive.
`O=S(=O)(NCc1ccco1)c1ccc2c(c1)Cc1ccccc1-2` gave Vaccinia mCherry -17% and Vaccinia Venus -14%.
Screening CCC(=O)N=c1sc2cc(F)cc(F)c2n1C returned Vaccinia mCherry inactive and Vaccinia Venus -2%.
O=C(O)CC/C(=N/NC(=O)c1ccc(-c2ccccc2)cc1)c1ccccc1 was read as Vaccinia mCherry -16% and Vaccinia Venus -8%.
Screening C=CCSc1nc2c(N)ncnc2n1C1OC(CO)C(O)C1O (configuration not stated) returned Vaccinia mCherry inactive and Vaccinia Venus -7%.
For Cn1nc(-c2ccc3c(c2)OCCO3)c2ccccc2c1=O the results were Vaccinia mCherry -11% and Vaccinia Venus -7%.
For CC(=O)c1ccc(N2CCN(c3ncnc4c3c(-c3ccccc3)cn4-c3ccc(C)c(Cl)c3)CC2)cc1 the results were Vaccinia mCherry -4% and Vaccinia Venus -9%.
O=C(Cn1cc(C(F)(F)F)ccc1=O)Nc1ccc2c(c1)OCO2 was read as Vaccinia mCherry -12% and Vaccinia Venus 4%.
Screening O=C(c1ccc(F)cc1)N1CCN(C(=O)c2cccnc2)CC1 returned Vaccinia mCherry inactive and Vaccinia Venus -2%.
Cc1ccc(C)c(CC(=O)N2CCCC(c3cc(C(=O)Nc4ccc5c(c4)OCO5)no3)C2)c1 (configuration not stated) was read as Vaccinia mCherry inactive and Vaccinia Venus -12%.
For COc1cc(S(=O)(=O)N2CCN(C)CC2)c(OC)cc1Cl the results were Vaccinia mCherry -4% and Vaccinia Venus -6%.
For COc1ccc(N2CC(NC(=O)c3ccc(S(=O)(=O)N4CCCCC4)cc3)CC2=O)cc1 (configuration not stated) the results were Vaccinia mCherry -12% and Vaccinia Venus -14%.
Screening Cc1ccnc(NS(=O)(=O)c2cnc(Cl)c(Br)c2)c1 returned Vaccinia mCherry -27% and Vaccinia Venus -22%.
`COC(=O)C1=C(c2cccc(OCc3ccccc3)c2)C[C@@H]2CC[C@H]1N2C(=O)NCCN1CCOCC1` gave Vaccinia mCherry -10% and Vaccinia Venus -24%.
Screening C(#Cc1ccccc1)CN1CCCCC1 returned Vaccinia mCherry -10% and Vaccinia Venus -12%.
`Cc1nc(-c2nc(C(=O)NNS(C)(=O)=O)cs2)cs1` gave Vaccinia mCherry inactive and Vaccinia Venus -10%.
`CCOC(=O)c1c(C)n(C)c2cc(-c3ccc(C)cc3)c(O)cc12` gave Vaccinia mCherry -20% and Vaccinia Venus -7%.
`COc1ccc(-c2ccc3c(c2)c(Sc2ccccc2)c(-c2ccccc2)n3C)cn1` gave Vaccinia mCherry 4% and Vaccinia Venus 2%.
CC(C)=CC1C(C(=O)NCCc2ccccc2)C1(C)C (configuration not stated) was read as Vaccinia mCherry inactive and Vaccinia Venus -12%.
For COc1ccccc1CNC(=O)C(NS(=O)(=O)c1ccc2c(c1)oc(=O)n2C)C(C)C (configuration not stated) the results were Vaccinia mCherry 22% and Vaccinia Venus 2%.
For NC(=O)CCC(NC(=O)OCc1ccccc1)C(=O)OCC(=O)c1ccccc1 (configuration not stated) the results were Vaccinia mCherry -8% and Vaccinia Venus -10%.
`C=CCNC(=S)NCC=C` gave Vaccinia mCherry inactive and Vaccinia Venus -3%.
Screening CCCS(=O)(=O)N1CCC(C(=O)NCCCN2CCCC2=O)CC1 returned Vaccinia Venus -10%.
Screening CC(C)CC1COC(=O)N1 (configuration not stated) returned Vaccinia mCherry inactive and Vaccinia Venus -9%.
For C[C@H](CO)N1C[C@H](C)[C@@H](CN(C)C(=O)Nc2cc(F)ccc2F)Oc2ncc(-c3cccc(F)c3)cc2C1=O the results were Vaccinia mCherry inactive and Vaccinia Venus -15%.
CC(=O)OCc1cc(-c2nc3ccccc3[nH]c2=O)nn1-c1ccc(Cl)cc1 was read as Vaccinia mCherry inactive and Vaccinia Venus -23%.
Screening CCOc1ccc(NC(=O)CS(=O)CC(=O)Nc2cccnc2)cc1 (configuration not stated) returned Vaccinia mCherry inactive and Vaccinia Venus -3%.
`COc1ccc(C(=O)NCC(=O)NCC(=O)OCC(=O)C(C)(C)C)cc1` gave Vaccinia mCherry inactive and Vaccinia Venus -10%.
CCC(C(=O)Nc1cc(OC)cc(OC)c1)n1nc(-c2ccc(C)c(C)c2)ccc1=O (configuration not stated) was read as Vaccinia mCherry -22% and Vaccinia Venus -18%.
Screening CC1CCN(C(=O)c2ncn3c2c(=O)[nH]c2ccccc23)CC1 returned Vaccinia mCherry -19% and Vaccinia Venus -4%.
`C[C@H]1CN([C@@H](C)CO)C(=O)c2cc(NC(=O)Cc3ccccc3)ccc2O[C@H]1CN(C)Cc1ccccc1` gave Vaccinia mCherry -14% and Vaccinia Venus -20%.
Screening Cc1cc2nc(-c3ccccc3O)[nH]c2cc1C returned Vaccinia mCherry -7% and Vaccinia Venus 1%.
For C[C@H](NC(=O)[C@@H]1CCCN1C(=O)[C@@H]1CCCN1C(=O)c1ccc(Cl)cc1)c1ccccc1 the results were Vaccinia mCherry 0% and Vaccinia Venus -7%.
For CN(C(=O)CSc1nc2ccc(NC(=O)c3ccco3)cc2s1)c1ccccc1 the results were Vaccinia mCherry inconclusive and Vaccinia Venus -24%.
For CCOC(=O)c1sc(CS(=O)(=O)c2ccc(Cl)cc2)nc1C the results were Vaccinia mCherry inactive and Vaccinia Venus -9%.
CCN1CCN(Cc2nc3cc(NC(=O)c4cc(OC)c(OC)c(OC)c4)ccc3n2CC)CC1 was read as Vaccinia mCherry -3% and Vaccinia Venus 2%.
For Cc1ccc(S(=O)(=O)N2C[C@H]3C(=O)C[C@@H](c4cccc(Cl)c4)N(S(=O)(=O)c4ccc(C)cc4)[C@H]3C[C@H]2c2ccc(Cl)cc2)cc1 the results were Vaccinia mCherry -7% and Vaccinia Venus -12%.
For CCOC(=O)C1=CCN(S(=O)(=O)c2cccc(Cl)c2)C1c1cccc(F)c1 (configuration not stated) the results were Vaccinia mCherry inactive and Vaccinia Venus -11%.
For Cc1ccccc1C(=O)N1CC(=O)Nc2ccc(Cl)cc2C1c1ccccc1 (configuration not stated) the results were Vaccinia mCherry -8% and Vaccinia Venus -13%.
`COc1ccccc1OCC(=O)NCC(c1cccs1)N1CCOCC1` (configuration not stated) gave Vaccinia mCherry -14% and Vaccinia Venus -6%.
Screening Cc1ccc(S(=O)(=O)/N=C(/Sc2ccccc2C(=O)O)c2ccccc2)cc1 returned Vaccinia mCherry 23% and Vaccinia Venus -12%.
`CCOc1ccc(CNS(=O)(=O)c2ccc3c(c2)CC(C)N3C(C)=O)cc1OC` (configuration not stated) gave Vaccinia mCherry -15% and Vaccinia Venus -10%.

Some of these compounds in order of SMILES length, low to high:
Screening Cc1cc2nc(-c3ccccc3O)[nH]c2cc1C returned Vaccinia mCherry -7% and Vaccinia Venus 1%.
`COc1ccccc1OCC(=O)NCC(c1cccs1)N1CCOCC1` (configuration not stated) gave Vaccinia mCherry -14% and Vaccinia Venus -6%.
For C[C@H](NC(=O)[C@@H]1CCCN1C(=O)[C@@H]1CCCN1C(=O)c1ccc(Cl)cc1)c1ccccc1 the results were Vaccinia mCherry 0% and Vaccinia Venus -7%.

Other compounds.
For CCN(CC)c1ccc(C2C(C(N)=O)=C(C)Nc3nc(SCc4ccccc4)nn32)cc1 (configuration not stated) the results were Vaccinia mCherry -3% and Vaccinia Venus -4%.
CCN(CCn1cccn1)C(=O)C1CCC(=O)N(CCc2cccc(F)c2)C1 (configuration not stated) was read as Vaccinia mCherry -1% and Vaccinia Venus 1%.
Screening CCCCNC(=NCc1cccc(C(F)(F)F)c1)Nc1ccccc1 returned Vaccinia mCherry -3% and Vaccinia Venus inconclusive.
`COc1ccccc1CNc1nc(-c2cc(C)n(C)c2C)cs1` gave Vaccinia mCherry 13% and Vaccinia Venus 17%.
Screening CN(C(=O)c1ccccc1C(=O)OCC(=O)c1ccc(Br)cc1)c1ccccc1 returned Vaccinia mCherry -7% and Vaccinia Venus -24%.
For Clc1cccc(-c2cc3nc(NCCOc4ccccc4)ccn3n2)c1 the results were Vaccinia mCherry -25% and Vaccinia Venus -22%.
CN(C)C(=O)c1sccc1Oc1ccc(F)cc1[N+](=O)[O-] was read as Vaccinia mCherry inactive and Vaccinia Venus -6%.
`COc1ccc(NC(=O)CN2C(=O)CC(c3ccco3)Sc3ccccc32)cc1OC` (configuration not stated) gave Vaccinia mCherry -11% and Vaccinia Venus -6%.
Screening Cc1cc2c(NC(=O)Nc3ccc(F)cc3)cccc2nn1 returned Vaccinia mCherry inactive and Vaccinia Venus -5%.
COc1ccccc1CNC(=O)CCCC(=O)n1ncc2cc(C)ccc21 was read as Vaccinia mCherry inactive and Vaccinia Venus -11%.
`CC1(C(=O)NCc2ccco2)Cc2c(-c3cccc(C(N)=O)c3)ccnc2O1` (configuration not stated) gave Vaccinia mCherry -24% and Vaccinia Venus -8%.
`O=c1c2ccccc2cnn1-c1ccc(Cl)cc1` gave Vaccinia Venus -4%.

Retrieved by structure from the entries so far (5):
COc1ccccc1CNC(=O)CCCC(=O)n1ncc2cc(C)ccc21 was read as Vaccinia mCherry inactive and Vaccinia Venus -11%.
`O=c1c2ccccc2cnn1-c1ccc(Cl)cc1` gave Vaccinia Venus -4%.
`COc1ccc(NC(=O)CN2C(=O)CC(c3ccco3)Sc3ccccc32)cc1OC` (configuration not stated) gave Vaccinia mCherry -11% and Vaccinia Venus -6%.
`COc1ccccc1CNc1nc(-c2cc(C)n(C)c2C)cs1` gave Vaccinia mCherry 13% and Vaccinia Venus 17%.
CCN(CCn1cccn1)C(=O)C1CCC(=O)N(CCc2cccc(F)c2)C1 (configuration not stated) was read as Vaccinia mCherry -1% and Vaccinia Venus 1%.

Other results follow.
C[C@]12c3[nH]c4cc(-c5ccco5)ccc4c3CCN1C(=O)[C@@H](CC(=O)NCc1cccc(C(F)(F)F)c1)C[C@@H]2C(=O)N1CCOCC1 was read as Vaccinia mCherry inconclusive and Vaccinia Venus inconclusive.
For Cc1occc1C(=O)Nc1sc2c(c1C(N)=O)CCCCC2 the results were Vaccinia mCherry inconclusive and Vaccinia Venus -27%.
For Cc1ccc(N2C(=NC(=O)c3ccccc3)SC3CS(=O)(=O)CC32)cc1 (configuration not stated) the results were Vaccinia mCherry -1% and Vaccinia Venus -16%.
`COc1ccc2nc(N3C(=O)CC(Cc4ccc(Cl)cc4)C3=O)sc2c1` (configuration not stated) gave Vaccinia mCherry -14% and Vaccinia Venus -9%.
For COc1ccc(C2CC(=O)c3cnc(NC(=O)c4ccccc4)nc3C2)c(OC)c1 (configuration not stated) the results were Vaccinia Venus -5%.
`COc1cc(C(=O)O)c2ccccc2n1` gave Vaccinia mCherry -13% and Vaccinia Venus -7%.
Nc1c(C(=O)Nc2cccc(F)c2)nnn1-c1cccc(C(F)(F)F)c1 was read as Vaccinia mCherry -15%&-16% and Vaccinia Venus -12%&-14%.
`COc1ccc(CNC(=O)CN(C(=O)c2snc(C(N)=O)c2N)c2ccc(F)cc2)cc1` gave Vaccinia mCherry -12% and Vaccinia Venus -11%.
Cc1ccccc1OCC(=O)Nc1ccccc1N1CCC(C)CC1 was read as Vaccinia mCherry -11% and Vaccinia Venus -1%.
Screening CO/N=C/NC(=O)NOCc1ccc(Cl)cc1Cl returned Vaccinia mCherry -13% and Vaccinia Venus -24%.
CC(=O)Nc1ccc(NC(=O)CSc2nc(C)nc3sc(C)c(C)c23)cc1 was read as Vaccinia mCherry -4% and Vaccinia Venus -7%.
C[C@H](NC(=O)C[C@@H]1CC[C@H]2[C@@H](COC[C@H](O)CN2Cc2ccc(C(F)(F)F)cc2)O1)c1ccccc1 was read as Vaccinia mCherry -26% and Vaccinia Venus -27%.
`COc1ccc(NC(=O)COC(=O)Cc2c[nH]c3ccccc23)cc1Cl` gave Vaccinia mCherry inactive and Vaccinia Venus 0%.
`CCn1c(=O)n(CC(=O)NCc2ccco2)c(=O)c2ccccc21` gave Vaccinia Venus -22%.
Screening CC(=O)c1ccccc1OC(=O)CCN1C(=O)c2ccccc2C1=O returned Vaccinia mCherry -1% and Vaccinia Venus -5%.
For COCCCNC(=O)Cn1c(=O)n(Cc2ccc(C(=O)NCc3ccc(C)cc3)cc2)c(=O)c2ccccc21 the results were Vaccinia mCherry -5% and Vaccinia Venus -1%.
Brc1cccc(-c2cnn3c(-c4ccccc4)cc(-c4ccccc4)nc23)c1 was read as Vaccinia mCherry -7% and Vaccinia Venus -1%.
